Assay outcomes as filed in PubChem BioAssay.
TRPML1 ag = human mucolipin-1 channel agonism | Q9GZU1 | TRPML1-expressing cells, Ca2+ dye fluorescence, FDSS; host cell line not named in the record; reference of the full effect not given here | activation, % (test concentration not listed) | 0.12% of 410,000 active | AID 624414; in the data active = activation above about 50%; inconclusive = about 30% to 50%; inactive = below about 30%; further: 0% is about no effect; the text of the record puts the active cut at 80%
Target sequence (Q9GZU1 whole entry, looked up): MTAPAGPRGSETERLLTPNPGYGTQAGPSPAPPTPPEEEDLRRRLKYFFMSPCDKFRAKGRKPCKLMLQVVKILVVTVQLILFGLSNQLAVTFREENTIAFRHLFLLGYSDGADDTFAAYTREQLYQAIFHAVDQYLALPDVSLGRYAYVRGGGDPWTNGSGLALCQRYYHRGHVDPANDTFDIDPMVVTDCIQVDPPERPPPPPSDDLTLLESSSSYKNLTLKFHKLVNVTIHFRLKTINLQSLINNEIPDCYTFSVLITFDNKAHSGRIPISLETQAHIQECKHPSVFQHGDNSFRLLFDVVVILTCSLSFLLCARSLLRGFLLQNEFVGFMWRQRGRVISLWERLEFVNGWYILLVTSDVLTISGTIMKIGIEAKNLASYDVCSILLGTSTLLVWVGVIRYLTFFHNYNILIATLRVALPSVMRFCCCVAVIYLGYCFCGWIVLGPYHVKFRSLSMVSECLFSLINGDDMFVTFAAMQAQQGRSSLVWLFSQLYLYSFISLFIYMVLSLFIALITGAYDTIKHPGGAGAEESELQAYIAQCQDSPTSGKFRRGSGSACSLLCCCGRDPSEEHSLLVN
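TRPML1-DL cells, Tet-induced overnight (~16 h, 37 degrees C), loaded 45-90 min at room temperature with Ca8 no-wash calcium dye plus quencher. FDSS fluorescence: 10 s baseline, compound pin-transfer, 110 s agonist read, then EC80 54-4 (4uM final) and 110 s antagonist read.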
CtBP-E1A blk = CtBP/E1A binding inhibition; activity change, % (concentration not given with the values); 0.49% of 340,000 active; AlphaScreen GST-E1A/His-CtBP binding, 1536-well; active compounds read low; control for the full effect not named in the record; in the data active means activity change below about -65%; inconclusive means about -30% to -65%; inactive means above about -30%; further: on the % scale 0 is the no-effect control and ±100 the full control effect
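GST-E1A and His-tagged CtBP (125 nM each as 5X stock) were preincubated with pin-transferred compound for 2 h at 37 °C in the dark, then glutathione donor and nickel acceptor beads were added for 1 h before AlphaScreen reading.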
Six1-Eya2 inh = Six1/Eya2 interaction inhibition; Q15475+O00167; AlphaScreen GST-Six1/His-Eya2 binding, biochemical; active compounds read low; control for the full effect not named in the record; activity change, % (concentration not given with the values); AID 651725; 0.56% of 360,000 active; in the data active = activity change below about -65%; inconclusive = about -30% to -65%; inactive = above about -30%; further: on the % scale 0 is the no-effect control and ±100 the full control effect
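GST-Six1 + His-Eya2 (5X stock: 250/500 nM); Tris pH 8.0, 300 mM NaCl, 0.05% BSA, 0.02% Tween 20; GSH donor/Ni acceptor beads; 1 h 37 °C dark; AlphaScreen readout.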
D2 agonist = activates the human D2 dopamine receptor | P14416 | activation, % (no concentration beside the values) | 0.084% of 360,000 active | DiscoveRx PathHunter D2 beta-arrestin, luminescence, 90 min; 100% = 57 uM dopamine signal; in the data active = activation above about 40%; inconclusive = about 15% to 40%; inactive = below about 15%; further: compound concentration not given in the record; the text of the record calls up to 30% inactive
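DiscoveRx PathHunter D2 beta-arrestin cells (2,100/well) attached overnight, then compound-stimulated 90 min at 37 C in HBSS/10 mM HEPES/0.1% Tween-20 buffer; beta-galactosidase complementation read by luminescence after 1 h at ambient temperature. Dopamine 57 uM final (EC100) as control.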
D2 PAM = positive allosteric modulators of human D2 dopamine receptor; potentiation, % (no concentration beside the values); AID 624464; DiscoveRx D2 beta-arrestin cells, luminescence, 90 min; 100% = 57 uM dopamine signal; 0.23% of 360,000 active; active = potentiation of 50% or more; inconclusive = 30% to 50%; inactive = 30% or less;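 further: compound concentration not given in the record; tested on top of an EC20 dose of dopamine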
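PathHunter beta-arrestin assay in DiscoveRx D2 cells. Compounds were added with an EC20 of dopamine (50 nM final) for 90 min at 37 deg C. Luminescence was read 1 h after detection reagent, with 57 uM dopamine as the EC100 control.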
PINK1 modulator = modulators of PINK1 expression. PINK1 immunofluorescence, high-content cytometry, 24 h. Potency, µM (highest dose often 76.6 µM), inactives show at the top dose activation (PINK1 increase), actives largely listed as activators. 0.2% of 410,000 active. AID 624263; active = well fitted activation curve with a large enough effect; inconclusive = small, poorly fitted or top-dose-only effect; inactive = flat fitted curve, though single readings scatter; cell line not stated here;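 further: potency means the concentration at half of the fitted maximal effect; % of control where 0% means no effect; nearly all actives have a fitted effect of over 65% in size; a mitochondrial uncoupler was the plate control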
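PINK1 protein, normally rapidly degraded, was detected by immunofluorescence after 24 hour compound treatment of a stable cell line. Titration data (5 concentrations) came from laser-scanning cytometry, with CCCP-treated wells as controls.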
* = called active by the depositor; ? = inconclusive; . = not tested or not shown; & = joins results of further samples; [ ] = remark or other dose.

SMILES	TRPML1 ag	CtBP-E1A blk	Six1-Eya2 inh	D2 agonist	D2 PAM	PINK1 modulator
NC(=NC1CCCCC1)c1ccc(Cl)cc1	0.1	1	5	-4.0	-10	0.9%
O=C(COC(=O)c1ccccc1-n1cnnn1)c1ccc(F)cc1	2.5	-7	8	-0.3	-14	-2.3%
COc1ccc(OC)c(CC(=O)NC(c2ccccc2)c2ccccc2)c1	3.1	-14	-2	5.4	1	5.0%
CCN(CC)c1ccc(S(=O)(=O)N2CCOCC2)cc1NC(=O)C1CC1	0.6	8	1	-1.2	-11	2.2%
COc1cc2c(cc1OC)[C@@H](NC(=O)CCC1CCCCC1)[C@H](O)C2	-0.7	1	4	-3.8	.	0.8%
CCC(CC)NC(=O)CSc1ccc(S(=O)(=O)N2CCOCC2)cn1	0.3	-11	3	-2.9	-3	0.8%
CCCn1c(NCc2cc(OC)ccc2OC)nc2ccccc21	-0.7	-1	-5	-4.6	-14	-3.1%
O=C(CN1C(=O)C2C3C=CC(C4CC34)C2C1=O)Nc1cccc2ncccc12 (stereo not given)	1.2	2	-4	-5.7	-2	0.0%
Cc1ccc(Cl)cc1NC(=O)CCCN1C(=O)c2cccnc2C1=O	-0.8	1	3	-4.2	3	3.9%
Cc1ccc(NC(=O)c2ncn(CCCNCCCN3CCCC3=O)n2)cc1C	1.0	0	19	-2.5	4	1.1%
Cc1cc2nc(C(F)(F)F)cc(-c3cccs3)n2n1	-0.3	9	40	-8.3	-4	8.6%
Cc1cc(-c2ccccc2)nc2cc(C(=O)N(Cc3ccccc3)Cc3ccccc3)nn12	2.0	27	20	-6.3	-1	-0.6%
Cc1ccc(Cc2c(C)[nH]c(=S)[nH]c2=O)cc1	0.8	0	5	1.1	-21	1.6%
CCC(NC(=O)NCc1ccc2c(c1)OCO2)(C(F)(F)F)C(F)(F)F	-0.6	0	0	0.6	3	-1.0%
COC(=O)C(C)N1C(=O)S/C(=C/c2cc(C)n(-c3ccccn3)c2C)C1=O (stereo not given)	0.3	.	-14	3.4	3	-0.5%
COc1ccc(-c2nc3ccc(C)cn3c2Cc2cccc(Cl)c2)cc1OC	0.0	2	-1	-3.5	-11	?
Cc1ccc(-n2nc(C(=O)O)c(C)c(C#N)c2=O)cc1Cl	1.1	7	7	12	23	1.3%
Cc1ccc(S(=O)(=O)N2CCN(C(=O)C3CCN(C(=O)c4ccc(F)cc4)CC3)CC2)c(C)c1	0.0	0	-4	7.2	1	0.0%
Cc1cccn2c(=O)c3cc(C(=O)NC4CCCC4)c(=N)n(CCCN4CCOCC4)c3nc12	0.8	-17	-11	-5.2	-11	-0.5%
Cc1cc(C(F)(F)F)nn1CCCNC(=O)c1cnccn1	0.7	6	0	0.7	-6	16%[38.3 µM]
COc1cc(-c2[nH]ncc2CN2CCc3sccc3C2)cc(OC)c1OC	-0.2	2	1	-2.7	-5	0.1%
Cc1ccc(-c2n[nH]c(=O)c3ccccc23)cc1S(=O)(=O)Nc1ccccc1	7.6	-14	-15	0.2	1	?
CCc1cccc(NC(=O)CNC(=O)N2CC(=O)Nc3ccccc32)c1	-0.6	2	6	-3.2	-15	2.0%
CCN(CC)c1ccc(/C=N/N2CCN(Cc3ccccc3)CC2)c(O)c1	1.2	?	-75*	-1.5	-9	1.5%
O=C(CCS(=O)(=O)c1ccccc1)NC1CCCCC1	1.1	8	4	-1.7	-10	-0.2%
O=C(O)CC(C(=O)NC1CCCCC1)C1CCCO1 (stereo not given)	0.5	14	9	-2.9	-10	2.1%
NC(=O)C1CCN(C(=O)c2cn(-c3ccccc3)nc2-c2cccnc2)CC1	0.4	-24	11	2.5	-18	-1.4%
Cc1nnsc1C(=O)NC1CCCc2c1cnn2-c1ccccc1F (stereo not given)	-0.3	-2	7	-0.9	-2	1.3%
O=C(CN1C(=O)NC2(CCc3ccccc32)C1=O)NCc1ccc(F)cc1 (stereo not given)	0.4	-1	-5	-8.7	-28	1.7%
NS(=O)(=O)c1cccc(NC(=O)c2cccc(-c3ccc(O)cc3)c2)c1	-1.1	-16	-8	-0.7	0	-1.0%

Next part, overlapping the part above by five compounds.
SMILES	TRPML1 ag	CtBP-E1A blk	Six1-Eya2 inh	D2 agonist	D2 PAM	PINK1 modulator
O=C(O)CC(C(=O)NC1CCCCC1)C1CCCO1 (stereo not given)	0.5	14	9	-2.9	-10	2.1%
NC(=O)C1CCN(C(=O)c2cn(-c3ccccc3)nc2-c2cccnc2)CC1	0.4	-24	11	2.5	-18	-1.4%
Cc1nnsc1C(=O)NC1CCCc2c1cnn2-c1ccccc1F (stereo not given)	-0.3	-2	7	-0.9	-2	1.3%
O=C(CN1C(=O)NC2(CCc3ccccc32)C1=O)NCc1ccc(F)cc1 (stereo not given)	0.4	-1	-5	-8.7	-28	1.7%
NS(=O)(=O)c1cccc(NC(=O)c2cccc(-c3ccc(O)cc3)c2)c1	-1.1	-16	-8	-0.7	0	-1.0%
COc1ccc(S(=O)(=O)N2CCOCC2)cc1NC(=O)CN1CCN(C)CC1	0.5	-3	7	-1.5	-1	0.6%
CC1=NN(c2ccc(C)cc2)C(=O)/C1=C\c1ccc(Br)s1	0.8	1	8	-4.2	-9	3.4%
COCCn1nnnc1CN1CCN(C(=O)c2ccco2)CC1	-0.2	5	8	4.5	-2	-2.3%
CCN(CC(=O)Nc1ccc(NC(C)=O)cc1)C(=O)CCCc1nc2ccccc2c(=O)[nH]1	-0.6	4	-1	1.7	15	-0.8%
O=C(NCCC1=CCCCC1)C(=O)NCC(c1ccco1)N1CCN(c2ccccc2)CC1 (stereo not given)	0.1	-1	8	-0.2	10	13µM*
Cc1ccc(S(=O)(=O)N2CCCCC2)cc1NC(=O)CSCC(=O)O	-0.1	1	-2	-0.5	0	-0.8%
COc1ccc(CN(CC2CCCO2)C(=O)CN2C(=O)C(C)Oc3ccc(C)cc32)cc1OC (stereo not given)	-0.7	2	-9	-6.5	-9	-0.5%
COc1cc(C(=O)Nc2cc(C)c(OCC(=O)N3CCOCC3)c(C)c2)cc(OC)c1OC	-0.1	1	2	1.3	6	-1.1%
COc1ccc(CNC(=O)CSc2nnc3c(n2)[nH]c2ccccc23)cc1	-0.5	1	0	-5.1	-10	3.1%
CCN(CC)c1ccc(S(=O)(=O)N2CCCCC2)cc1NC(=O)C1CCC1	0.6	-3	-2	-5.5	-5	1.9%
COc1ccccc1CC(=O)Nc1ccc(S(=O)(=O)N2CCOCC2)cc1	0.0	-23	-17	-0.6	-1	4.4%
CCN(CC)CCOC(=O)c1cccc(OC)c1	0.9	2	9	-3.8	-33	2.1%
COC(=O)CSc1ccc2nnc(CCNS(=O)(=O)c3ccccc3)n2n1	2.6&-0.1	.	6	2.8	11	1.4%&-0.2%
COc1ccc(N(CC(=O)N/N=C/c2cccnc2)S(=O)(=O)c2ccc(C)cc2)cc1OC	-0.5	-4	-15	-2.5	-13	0.7%
COc1cc(/C=C(\C#N)C(=O)NCC2CCCO2)ccc1OCC(N)=O (stereo not given)	-0.1	-22	-18	-1.2	-5	2.3%
NS(=O)(=O)c1ccc(NC(=O)CSC2=NC(=O)C(c3ccccc3)C(=O)N2)cc1 (stereo not given)	0.3	-8	-16	-3.3	2	-2.5%
O=C(NCc1ccccn1)Nc1ccc(Br)cc1Cl	-0.2	1	5	-7.1	-4	0.8%
O=C(c1ccc2c(c1)OCO2)N1CCN(c2ccccn2)CC1	0.7	8	9	-1.8	-1	0.5%
C[C@H]1CN([C@@H](C)CO)C(=O)CCCn2nncc2CO[C@@H]1CN(C)C(=O)Cc1ccccc1	-0.2	6	14	-3.5	1	1.9%
CCOc1ccc(NCc2nnc(SCC(=O)Nc3nc(-c4ccccc4)cs3)n2-c2ccccc2)cc1	0.8	1	3	-0.4	-6	?
Cc1ccc(OCC(=O)Nc2ccc(S(=O)(=O)Nc3ccccn3)cc2)cc1C	0.4	-6	1	6.0	-3	13%
Cn1cc(CCNC(=O)CC2C(=O)NCCN2Cc2cccc(Oc3ccccc3)c2)cn1 (stereo not given)	0.4	.	2	0.7	-1	4.4%
O/N=C1/CCCCc2sccc21	0.3	4	5	-2.6	-7	2.5%[38.3 µM]
CCOC(=O)c1ccc(N2C(=O)c3n[nH]c(C)c3C2c2ccc(OC)cc2OC)cc1 (stereo not given)	4.6	16	1	-4.5	1	-2.4%
C=CC[n+]1c(-c2ccc(OCC)cc2)csc1NNC(=O)Nc1ccccc1	-0.3	-21	?	1.6	4	0.1%[38.3 µM]
C[C@]12C=CC(=O)C=C1CCC1C2CC[C@@]2(C)C1CCC21OCCO1 (stereo not given in full)	0.7	0	4	3.4	5	-0.7%
N#Cc1c(N)nc2c(c1N)CC(CO)O2 (stereo not given)	1.9	2	2	-1.9	7	0.5%
Cc1ccc(SCCCn2cncn2)cc1	0.2	-1	1	-3.0	-18	0.2%
CC(=O)c1cccc(NC(=O)c2ccc(S(=O)(=O)N3CCCCC3)cc2)c1	-0.3	2	5	0.7	0	1.9%
CN(C)S(=O)(=O)c1ccc(C(=O)OCC(=O)c2ccc(OC(F)F)cc2OC(F)F)cc1	0.9	0	0	-3.9	-33	-2.7%
O=C(NC1CCN(S(=O)(=O)c2cccc(F)c2)CC1)c1ccc(F)cc1	0.0	12	-2	-6.1	-7	0.3%
CCOC(=O)N1CCC(=NNC(=O)c2cc3ccccc3cc2O)CC1	1.1	-1	-8	0.8	15	18%
